ALR inh: blocks human ALR sulfhydryl oxidase activity. P55789. purified ALR, DTT oxidation, H2O2 HRP-luminol luminescence. inhibition, % (test concentration not listed). 290,000 tested, 3.8% active. AID 485317;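 active = mean and each replicate at 75% or more; inconclusive = only one of the two met; inactive = neither met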;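 also: stock transfer was 7.5 nL into about 7.5 µL; 0% = neutral wells and 100% = wells with inactivated enzyme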
Target sequence (P55789 whole entry, looked up): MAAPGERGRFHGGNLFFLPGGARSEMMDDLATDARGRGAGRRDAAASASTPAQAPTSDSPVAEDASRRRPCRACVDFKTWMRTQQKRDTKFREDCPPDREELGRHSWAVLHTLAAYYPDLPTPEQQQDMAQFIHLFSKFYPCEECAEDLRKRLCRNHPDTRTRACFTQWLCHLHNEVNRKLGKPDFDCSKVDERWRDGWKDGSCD
FGF22 binding: binders of recombinant human FGF22 by thermal shift. calls only at 9.99 µM. 340,000 tested, 1.5% active. AID 651658. SYPRO orange fluorescence; percent of sucrose octasulfate shift, DMSO zero. Q9HCT0;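 active = melting point raised past a set limit in the mean and every replicate; inconclusive = no clear call; three in four hits are not shown here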
Target sequence (Q9HCT0 whole entry, looked up): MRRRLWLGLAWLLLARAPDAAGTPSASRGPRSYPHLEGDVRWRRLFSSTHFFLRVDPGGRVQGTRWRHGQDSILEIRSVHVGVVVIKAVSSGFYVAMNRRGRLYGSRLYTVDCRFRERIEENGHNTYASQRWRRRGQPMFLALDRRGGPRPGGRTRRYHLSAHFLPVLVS
Ecoli rRNA inh: inhibitors of bacterial rRNA selective over humanized ribosomes. E. coli WT GFP vs humanized-ribosome RFP mutants, fluorescence, 24 h; hits give low values; DMSO median 0, no signal -100. GFP signal change (wild-type ribosome), % (no concentration beside the values). 350,000 tested, 1.6% active. AID 720706;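 active = significant combined selectivity score with lowered wild-type GFP, culture density cut under 30%, mutant RFP and density less affected; inactive = any of these conditions unmet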; also: one replicate is shown; some compounds called inactive have numbers as strong as hits
Vif TR-FRET: inhibitors of Vif binding to APOBEC3G peptide, primary screen, biochemical, TR-FRET, GST-Vif 1-94, biotin-A3G peptide, dose response retest (AID 1117319) | TR-FRET GST-Vif / biotin-A3G peptide binding; higher % means a stronger effect; test concentration not given here; strong numbers were not always called active | one-dose inhibition, %; IC50 in µM for titrated hits | 260,000 tested, 0.57% active;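 active = above the screen mean plus three standard deviations and confirmed in dose response; inconclusive = results disagree or hit not tested in dose response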;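 also: Vif residues 1-94 fused to GST binding biotinylated APOBEC3G peptide 110-148; 0% = full assay without inhibitor and 100% = GST in place of GST-Vif; retest series ran down from 100 µM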
AF4-AF9 inh: inhibitors of human MLL-AF4/AF9 interaction. AlphaScreen, biotin-AF4 peptide binding to FLAG-AF9. 350,000 tested, 0.47% active. inhibition, % at 10 µM;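 active = every replicate reaching a set inhibition limit, whatever the replicate mean, cut at about 25% in these data; inconclusive = mean inhibition reaches that limit but some replicates miss it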;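 also: 0% = plate neutral control median and 100% = total signal loss; the record names both 10 and 1 µM as test concentration; the first replicate is given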
HNF4A DNA FP: change in binding of human HNF4 alpha to DNA; AID 1224865; activity change, % at 10 µM; HNF4a-FITC DNA binding, fluorescence polarization, 1 h; P41235; 360,000 tested, 0.3% active; in the data active = activity change above about 30%, passing the limit was not always enough;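 also: controls were the assay level and a saturating level of protein; the project sought stronger binding though the title names inhibitors; some compounds called inactive have numbers as strong as hits; positive values seem to mean higher polarization but the record does not say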
Target sequence (P41235 whole entry, looked up): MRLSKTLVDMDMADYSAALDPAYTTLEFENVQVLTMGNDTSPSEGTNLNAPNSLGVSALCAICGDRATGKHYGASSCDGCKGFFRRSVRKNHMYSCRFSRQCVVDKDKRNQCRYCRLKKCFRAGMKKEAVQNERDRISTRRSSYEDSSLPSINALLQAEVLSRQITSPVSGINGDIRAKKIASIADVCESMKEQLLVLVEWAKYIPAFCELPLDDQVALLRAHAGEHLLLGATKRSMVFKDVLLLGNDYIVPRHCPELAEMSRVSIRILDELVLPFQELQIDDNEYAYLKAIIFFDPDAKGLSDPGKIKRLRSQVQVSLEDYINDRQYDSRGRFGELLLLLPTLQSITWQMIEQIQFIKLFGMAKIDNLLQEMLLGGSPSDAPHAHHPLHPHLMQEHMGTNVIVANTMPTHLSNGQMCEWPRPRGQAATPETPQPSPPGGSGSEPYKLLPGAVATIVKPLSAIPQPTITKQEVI
E coli growth: blocks Escherichia coli growth | OD600, 23 h; hits give low values | OD600 absorbance (concentration not given with the values) | 330,000 tested, 0.21% active;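 active = OD600 absorbance below the run mean of sample wells minus 3.6 SD, in any replicate, cut at about 0.56 in these data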;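 also: stock transfer was 300 nL into about 60 µL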
Ecoli rRNA inh OD600: further read-out of Ecoli rRNA inh, marked with its call; OD600 change, %; measured here: OD600 growth;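 optical density of the mix in the first replicate; 0 = DMSO median and -100 = no signal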
Ecoli rRNA inh RFP: also measured in Ecoli rRNA inh; calls as there; RFP signal change, %; measured here: RFP humanized mutant strains;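 first replicate; 0 = DMSO median and -100 = no signal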
Numbers without * were called inactive; i = inactive; ? = inconclusive; nt = not tested or not shown; & = joins results of further samples. Not all compounds are listed (hit frequency here may not be typical).

SMILES	ALR inh	FGF22 binding	Ecoli rRNA inh	Ecoli rRNA inh OD600	Ecoli rRNA inh RFP	Vif TR-FRET	AF4-AF9 inh	HNF4A DNA FP	E coli growth
CCc1nnc(SCc2ccc(CSc3nnc(CC)n3N)cc2)n1N	nt	nt	nt	nt	nt	1%	nt	-2.0	0.67
Cc1ccc(NS(=O)(=O)c2ccc3[nH]c(=O)c(=O)[nH]c3c2)cc1Cl	-1	nt	-8	-25	0.6	-6%	-2.0	2.1	0.63
CCOc1cccc(CN2CCCC(C(=O)Nc3ccc(-c4ccn[nH]4)cc3)C2)c1O (centres undefined)	80*	i	1	1	0.0	1%	3.3	-0.9	0.69
Cc1cc(C)c(NC(=O)C2CCCN2C(=O)NC2CCCCC2)c(C)c1 (centres undefined)	nt	nt	nt	nt	nt	5%	nt	2.0	0.7
CC(C)Nc1nc(NC(C)C)nc(OCCOC(=O)c2ccccc2)n1	4	nt	nt	nt	nt	2%	nt	3.0	0.7
COc1cccc(CN2[C@H](CO)[C@@H](c3ccccc3)C23CN(C(=O)C2CCOCC2)C3)c1	nt	i	3	12	0.2	nt	0.5	nt	nt
COc1ccc(CCNC(=O)c2[nH]c(C)c(C(C)=O)c2C)cc1	-2	nt	nt	nt	nt	?	nt	-4.6	0.77
CC(=O)c1ccc(N/C=C/C(=O)c2ccc(Br)cc2)cc1	-5	i	5	0	-3.4	nt	-1.6	0.3	0.72
CO[C@H]1CN(C)C(=O)c2ccc(NC(=O)NC(C)C)cc2OC[C@@H](C)NC[C@H]1C	nt	i	2	0	-1.0	nt	-1.7	nt	nt
O=c1[nH]c(C2CCCN(S(=O)(=O)c3ccccc3)C2)nc2c1nnn2Cc1cccc(Cl)c1 (centres undefined)	-4	i	-5	-15	1.3	nt	-1.2	4.8	0.68
COC(=O)c1ccc(S(=O)(=O)N2CCCCCC2)cc1	-3	nt	nt	nt	nt	-5%	nt	-2.8	0.71
COC(=O)C[C@@H]1C[C@H]2c3cc(NC(=O)c4cccnc4)ccc3O[C@H]2[C@H](CO)O1	nt	i	1	6	1.6	nt	-2.8	nt	nt
C=CCn1c(C)nnc1SCC(=O)Nc1ccc2c(c1)OCCO2	-4	i	11	11	1.4	-2%	2.1	0.2	0.63
Cc1ccc(-c2cc(C(=O)O)c3cc(Br)ccc3n2)s1	38&25	i	-1&-27	-12&-31	0.3&-8.5	-75%&-26%	1.5&0.3	0.0&0.6	0.68
O=C(COc1cccc(C(F)(F)F)c1)Nc1nnc(C2CC2)s1	-6	i	1	2	-1.3	-2%	-5.5	-0.2	0.7
CCC(=O)Nc1ccc(S(=O)(=O)Nc2nccs2)cc1	0	i	5	4	0.1	-7%	1.8	3.3	0.62
COc1ccc(S(=O)(=O)N(C)C[C@@H]2OCCCC[C@H](C)Oc3ccc(NS(=O)(=O)c4cn(C)cn4)cc3C(=O)N([C@@H](C)CO)C[C@@H]2C)cc1	nt	i	-8	-15	-4.1	nt	-0.1	nt	nt
Cc1noc(C)c1NC(=O)N(C)C[C@H]1Oc2ccc(NS(=O)(=O)c3c(C)noc3C)cc2CC(=O)N([C@H](C)CO)C[C@@H]1C	nt	i	4	7	-3.5	nt	0.2	nt	nt
Cn1c(SCc2ccc(C#N)cc2)nnc1-c1cccc(Cl)c1	-1	nt	nt	nt	nt	-4%	nt	-2.9	0.64
CN(C)Cc1c(C(=O)N/N=C/c2ccc(OCc3ccc(F)cc3)cc2)nnn1-c1nonc1N	-1	i	3	0	-1.2	nt	2.0	-2.8	nt
NC(=O)C(Cc1ccccc1)N1C(=O)c2ccccc2C1=O (centres undefined)	nt	i	13	9	-0.8	4%	-1.3	2.7	0.72
COc1ccc(NC(=O)Nc2ccc3c(c2)C(=O)N([C@@H](C)CO)C[C@H](C)[C@H](CN(C)S(C)(=O)=O)O3)cc1	nt	i	3	19	-0.3	nt	-1.4	nt	nt
O=C(C[C@H]1CC[C@@H](NC(=O)c2cccc(F)c2)[C@@H](CO)O1)NCCN1CCCC1	nt	i	1	-2	-0.6	nt	0.7	nt	nt
CCCN1[C@@H]2c3ccc(-c4ccccc4F)c(=O)n3C[C@@H]2[C@@H](CO)[C@@H]1C(=O)N1CCOCC1	nt	i	-2	-16	-0.2	nt	-6.0	nt	nt
O=C(O)CN1C(=O)/C(=C\c2cccc(OCc3ccc(Cl)cc3)c2)SC1=S	97*	i	-42	-55	-2.3	-4%	2.5	-6.8	0.66
Cc1ccc(/C=N/NC(=O)c2ccoc2C)o1	7	nt	nt	nt	nt	2%	nt	-1.7	nt
C[C@H]1CN([C@@H](C)CO)C(=O)CCCn2nncc2CO[C@H]1CN(C)S(=O)(=O)c1ccc2ccccc2c1	nt	i	-7&-5	-6&-7	-7.4&3.4	nt	-0.3&-0.8&0.3	-2.9	nt
CCOC(=O)CNC1CC(=O)N(c2cccc(Cl)c2)C1=O (centres undefined)	-2	i	8	0	-0.4	-1%	2.8	1.6	0.67
CC1(C)Cc2c(sc(NC(=O)C(=O)NCCCN3CCOCC3)c2C#N)CO1	5	i	-3	-2	-1.6	-9%	-1.2	3.0	0.69
CCOC(=O)C1CCN(C(=O)COc2ccc(Br)cc2Br)CC1	-8	i	-8	-3	-0.1	8%	-1.0	-1.1	0.65

Full records as entered above. Order of screens: ALR inh | FGF22 binding | Ecoli rRNA inh | Ecoli rRNA inh OD600 | Ecoli rRNA inh RFP | Vif TR-FRET | AF4-AF9 inh | HNF4A DNA FP | E coli growth
`O=C(COc1cccc(C(F)(F)F)c1)Nc1nnc(C2CC2)s1` across the screens: -6 | i | 1 | 2 | -1.3 | -2% | -5.5 | -0.2 | 0.7
`CCOC(=O)C1CCN(C(=O)COc2ccc(Br)cc2Br)CC1` across the screens: -8 | i | -8 | -3 | -0.1 | 8% | -1.0 | -1.1 | 0.65
`CCc1nnc(SCc2ccc(CSc3nnc(CC)n3N)cc2)n1N` across the screens: nt | nt | nt | nt | nt | 1% | nt | -2.0 | 0.67
`O=C(C[C@H]1CC[C@@H](NC(=O)c2cccc(F)c2)[C@@H](CO)O1)NCCN1CCCC1` across the screens: nt | i | 1 | -2 | -0.6 | nt | 0.7 | nt | nt

Carrying on:
SMILES	ALR inh	FGF22 binding	Ecoli rRNA inh	Ecoli rRNA inh OD600	Ecoli rRNA inh RFP	Vif TR-FRET	AF4-AF9 inh	HNF4A DNA FP	E coli growth
O=C(NNC(=O)C12CC3CC(CC(Cl)(C3)C1)C2)c1ccncc1	nt	nt	2	6	0.1	0%	0.5	2.4	0.67
O=C(NC1CCCCCCC1)c1ccco1	-20	nt	nt	nt	nt	3%	nt	-2.5	0.7
Cc1ccc(NC(=O)CSc2nc3ccccc3c(=O)n2CCCC(=O)N2CCCC2)cc1	-22	nt	nt	nt	nt	-2%	nt	1.9	0.74
COc1ccc(NC(=O)CSCc2cc(=O)n3cc(C)sc3n2)cc1	-6	i	13	17	1.9	nt	-2.2	-2.6	0.62
COCCNC(=O)C[C@H]1CC[C@H]2[C@@H](COc3ccc(NC(=O)COC)cc3C(=O)N2C)O1	nt	i	3	5	1.2	nt	-2.8	nt	nt
CCCCn1c(C)csc1=Nc1cccnc1	71	i	-7	-16	1.8	3%	-6.9	0.7	0.72
Cc1cccc(CC(=O)NCCn2c(C)cc3ccccc32)c1	-5	i	8	6	40	7%	-5.4	0.6	0.75
O=C(CSc1nnc(-c2ccccc2)o1)c1ccc2c(c1)OCCO2	1	nt	nt	nt	nt	8%	nt	2.9	0.76
COc1cc(OC)c(C(=O)NCC(c2cccs2)N(C)C)cc1OC (centres undefined)	0	nt	nt	nt	nt	-17%	nt	1.3	0.67
C/C(CC(=O)Nc1ccc(Cl)c(Cl)c1)=N\NC(=O)C(=O)N1CCCCC1	4	i	-26	-39	29	nt	0.0	2.1	nt
COc1ccc([C@H]2C[C@H](n3cc(COC(=O)c4ccccc4)nn3)[C@@H](O)CN2C(=O)C2CCCCC2)cc1	nt	i	-4	-6	0.8	nt	1.7	-2.3	nt
CCOc1ccc(N2CC(C(=O)NCCCc3ccccc3)CC2=O)cc1 (centres undefined)	7	i	0	4	-0.3	-9%	-3.3	0.1	0.68
CCn1cnnc1SCC(=O)NCC1COc2ccccc2O1 (centres undefined)	1	i	16	3	1.8	-4%	4.4	5.5	0.71
COC(=O)Cc1cc(OC)c(OC)cc1Cc1cc(OC)c(OC)cc1CC(=O)OC	11	nt	nt	nt	nt	-4%	nt	0.0	0.73
C[C@@H]1CN([C@H](C)CO)S(=O)(=O)c2ccc(Br)cc2O[C@@H]1CN(C)Cc1ccc(C(=O)O)cc1	nt	i	-1&6	1&8	1.5&-2.3	0%	3.1&4.4	4.2	nt
CCOC(=O)c1sc(/S(C)=N\S(=O)(=O)c2cccc(Cl)c2)c2c1CCC=C2 (centres undefined)	-12	i	-19*	-3.7*	2.7*	14%	3.6	7.3	nt
COC(=O)C1=C(COc2ccc(F)cc2)NC(=O)NC1c1ccc(C)cc1C (centres undefined)	-4	nt	nt	nt	nt	-2%	nt	1.6	0.67
COc1ccc2c3c([nH]c2c1)[C@H](CO)N(C(=O)C1CC1)CC31CN(C)C1	nt	i	4	6	-0.7	nt	1.3	nt	nt
CN1CCN(S(=O)(=O)c2cccc(C(=O)N(C)CC(=O)Nc3ccc(Cl)c(Cl)c3)c2)CC1	nt	nt	-22	-30	-4.6	nt	2.6	0.4	0.69
COc1ccc(CCNC(=O)CSc2nc(-c3ccco3)cc(C(F)(F)F)n2)cc1	-1	nt	nt	nt	nt	66%	nt	0.5	0.71
C=C(C)CSc1ncc(-c2cccc(C(F)(F)F)c2)cn1	-20	nt	nt	nt	nt	-3%	nt	0.2	0.71
COc1ccc(OC)c(NC(=O)C2CCCN2C(=O)NC2CCCCC2)c1 (centres undefined)	-10	i	3	2	0.2	10%	3.6	1.5	0.7
COc1ccc(C(=O)Nc2ccnn2C2CCN(Cc3ccncc3)CC2)cc1	3	i	4	6	-0.1	7%	0.6	0.2	0.72
COc1ccccc1-c1ccc([C@@H]2[C@@H](C#N)N(C(=O)CN(C)C)[C@H]2CO)cc1	nt	i	3	8	5.3	nt	-5.1	nt	nt
C[C@H](CO)N1C[C@H](C)[C@H](CN(C)C)OCCCC[C@H](C)Oc2ccc(NS(=O)(=O)c3ccc(F)cc3)cc2C1=O	nt	i	-3	0	-2.6	nt	0.5	nt	nt
Cc1ccc(-c2noc(C3CCCN(C(=O)c4ccc(C(C)(C)C)cc4)C3)n2)o1 (centres undefined)	2	i	-2	-28	0.5	nt	3.0	3.3	0.68
CCOC(=O)CC(=O)COc1nc2cc3c(nc2o1)CCCC3	0	i	-4	-7	-0.1	-6%	-5.5	1.9	0.65
Cc1cc(C)n2nc(SCc3ccccc3F)nc2n1	2	i	1	4	4.9	-6%	-0.4	-0.1	0.69
Cc1ccc(C)c(NS(=O)(=O)c2cc(C(=O)Nc3ccccc3-c3ccccc3)ccc2C)c1	1	nt	nt	nt	nt	1%	nt	-3.2	0.76
Cc1ccc(S(=O)(=O)N(C)C[C@H]2Oc3ccc(NC(=O)Cc4ccccc4)cc3C(=O)N([C@@H](C)CO)C[C@H]2C)cc1	nt	i	-3	-16	-2.9	nt	-1.2	nt	nt
Oc1cccc(Nc2ccccc2)c1	99*	i	-18	-22	9.8	nt	nt	-1.4	0.63
CCCn1nc(C(=O)Nc2nnc(CC)s2)c2ccccc2c1=O	0	i	-3	-9	-1.6	7%	-2.9	-0.8	0.66

Screening results (PubChem BioAssay)
